Assay outcomes as filed in PubChem.
Bead autofluor – compound fluorescence in toxin protease inhibitor counterscreen | compound autofluorescence counterscreen, microsphere flow cytometry; active compounds read high | fluorescence intensity (test concentration not listed) | 360,000 tested, 3.1% active | AID 624483;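 active = at least 3 SD above the mean of all compounds, about 16000 in these data; inconclusive = too few beads counted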;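 note: 100 nL of 1 mM stock went into each well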
BJeLR lethal – MLPCN primary cell-based screen for lethality selective to Ras in HRASV12 cells; BJeLR (HRASV12) viability, CellTiter-Glo ATP luminescence, 48 h; reference of the scale not given here; inhibition, % (test concentration not listed); 300,000 tested, 0.17% active;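 active = replicate mean above 50%; inconclusive = above 50% but judged a plate artefact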;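 note: 50 nL library stock added to about 25 µL; numbers are from one replicate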
ugtP null kill – growth inhibition of ugtP-null S. aureus, primary screen, RN4220 ugtP deletion, OD600; 16 h; some inactives read as strong as hits; growth inhibition, % (concentration not given with the values); 330,000 tested, 0.54% active;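 active = z-score under -3 and OD600 up to 0.15 on both plates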;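 note: plate controls were untreated wells for no effect and antibiotic for full effect; wells of about 80 µL received 100 nL stock; the first replicate is given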
PrP UTR inh – inhibition of PrP 5' UTR reporter expression | 340,000 tested, 0.35% active | cell-based PrP 5' UTR mRNA reporter, plate reader | inhibition, % (concentration not given with the values);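 active = every replicate at 50% or more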;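 note: 0 = median of the neutral control wells; tested in H4 reporter cells; numbers are from one replicate; inactives centre near -14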
Mtb hypoxia rep – PubChem AID 1159583; M. tuberculosis hypoxia-regulated fluorescent reporter, fluorescence; fluorescence inhibition, % (test concentration not listed); 300,000 tested, 0.1% active;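 active = 35 to 45% if threefold the growth effect, above 45% if 1.5-fold the growth effect; inactive = the rest, general growth blockers included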;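 note: wells of about 50 µL received 100 nL stock; 0% = vehicle wells and 100% = reference inhibitor wells; whole bacteria with a GFP reporter of the hypoxia response; strong numbers were not always called active; many hits fall short of the cut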
RN4220 kill – growth inhibition of S. aureus RN4220, primary screen, OD600; 16 h; inhibition, % (test concentration not listed); 330,000 tested, 0.33% active;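 active = z-score of -3 or lower and OD600 up to 0.18 on both plates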;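 note: plate controls were untreated cells for no effect and reference antibiotic for full effect; stock transfer was 100 nL into about 80 µL; one replicate is shown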
Mtb hypoxia rep growth – further read-out of Mtb hypoxia rep, marked with its call; growth inhibition, %; measured here: M. tuberculosis growth (absorbance);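 0% = vehicle and 100% = reference antibiotic; read after six days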
* marks the source's active call; other numbers are inactive results; u = inconclusive; x = not tested or not shown; & = joins results of further samples. Outcome played no part in choosing rows; 3.9% or so of the library scored in one or more.

SMILES	Bead autofluor	BJeLR lethal	ugtP null kill	PrP UTR inh	Mtb hypoxia rep	Mtb hypoxia rep growth	RN4220 kill
COc1ccc(-c2nc(CN3CCN(c4cc(C)nc(C)c4)CC3)c(C)o2)c2ccccc12	3393	5	-1	-20	9	13	2.5
CCOc1ccc(C(=O)Nc2ccc(Cc3ccncc3)cc2)cc1Br	4221	-4	-14	-6	12	0	-8.4
Cc1ccc(NC(=O)c2cccnc2C(=O)Nc2ccc(C)cc2)cc1	3366	3	5	-17	4	6	-0.7
O=C(NNc1ccccc1)C(=O)NNc1ccccc1	3057	x	-6	-4	8	0	-3.3
CC1(C)SC(=S)N(N=Cc2cccnc2)C1N(O)C(=O)NC1CCCCC1 (stereo not drawn)	x	x	-2	x	13	5	6.6
CCCCOP(=O)(OCCCC)C1(C)CC(=O)CC(C)(C)C1 (stereo not drawn)	2901	x	2	7	6	5	4.2
COc1ccc(C)cc1N(C)C(=O)c1coc(=O)c2ccccc12	3392	3	8	4	2	-1	3.1
COc1ccc(C(CNC(=O)c2oc3ccc(C)cc3c2C)N2CCCCC2)cc1 (stereo not drawn)	4769	-5	4	-12	4	-1	-0.3
CC(C)C[C@@H]1NC(=O)N(CCN2CCOCC2)C1=O	3543	1	2	-9	x	x	5.5
O=C(Cc1ccc(S(=O)(=O)N2CCOCC2)s1)NCC1CCCCC1	2463	-15	4	-7	0	1	-0.5
O=C(CN1CCCCCC1)Nc1cc([N+](=O)[O-])ccc1Cl	4513	4	-2	3	4	1	4.0
CCOC(=O)c1ccc2c(c1)n(CCCS(=O)(=O)[O-])c(/C=C/c1ccc(Cl)cc1)[n+]2CC	4701	-4	-1	-15	9	4	1.6

Rewritten with bars between the fields: 3 of the compounds above
Structure | Bead autofluor | BJeLR lethal | ugtP null kill | PrP UTR inh | Mtb hypoxia rep | Mtb hypoxia rep growth | RN4220 kill
COc1ccc(C)cc1N(C)C(=O)c1coc(=O)c2ccccc12 | 3392 | 3 | 8 | 4 | 2 | -1 | 3.1
COc1ccc(C(CNC(=O)c2oc3ccc(C)cc3c2C)N2CCCCC2)cc1 (stereo not drawn) | 4769 | -5 | 4 | -12 | 4 | -1 | -0.3
CC(C)C[C@@H]1NC(=O)N(CCN2CCOCC2)C1=O | 3543 | 1 | 2 | -9 | x | x | 5.5

The listing continues.
SMILES	Bead autofluor	BJeLR lethal	ugtP null kill	PrP UTR inh	Mtb hypoxia rep	Mtb hypoxia rep growth	RN4220 kill
COc1ccc(Cl)cc1NC(=O)CN(C)C(=O)Cc1ccc(-c2ccccc2)cc1	8366	x	-8	-12	7	11	2.2
O=C(NCCCN1CCOCC1)c1ccc(Br)cc1Br	x	-2	5	x	8	3	4.5
O=C(COC(=O)CNC(=O)C1CCCCC1)Nc1ccc(Br)cc1Br	3757	x	1	-22	15	8	0.6
Cc1cc(C)cc(OCC(=O)Nc2ccccc2N2CCCCC2)c1	4870	-1	3	-8	x	x	0.2
CC(C)CC(=O)N1CCC(O)(CS(=O)(=O)Cc2ccccc2)CC1	10068	1	0	-26	4	14	4.6
CC(C)(Oc1ccc(F)cc1)C(=O)OCC(=O)c1ccc(S(C)(=O)=O)cc1	x	x	8	-11	6	6	1.1
COc1ccc(CNC(=O)Nc2ccc(C)cc2C)cc1	2145	-4	1	-25	-2	0	-0.8
COc1ccc(NC(=O)C(Cc2ccccc2)n2cccc2)cc1 (stereo not drawn)	x	7	5	3	-9	-15	2.5
CN(Cc1nc2ccccc2c(=O)[nH]1)Cc1nc2ccsc2c(=O)[nH]1	4413	3	9	-10	0	-13	0.3
Cn1c(=O)[nH]c(=O)c2c1nc(CN1CCN(c3ccccc3F)CC1)n2CCCc1ccccc1	10355	2	2	7	4	18	8.4
Cc1ccc(S(=O)(=O)Nc2nc(C)c(NC(=O)OCCCl)s2)cc1	21860*	9	10	-22	2	-2	2.6
CCN(CC(=O)NC1CCS(=O)(=O)C1)S(=O)(=O)c1ccc(Cl)c(C(F)(F)F)c1 (stereo not drawn)	6596	x	2	-5	5	3	4.4
Cc1cc(C)n2nc(C(=O)OCC(=O)NNC(=O)c3ccccc3)nc2n1	6227	x	2	1	7	-6	0.1
CCc1ccc(N2CC(C(=O)NCC(C)(C)N3CCOCC3)CC2=O)cc1 (stereo not drawn)	3982	x	5	-14	14	4	5.1
Cc1cc(OCc2cc(C(=O)N(C)CC3CCOCC3)no2)cc(C)c1Cl	5103	-4	2	-31	1	-11	6.6
Oc1ccc(-c2csc(Nc3cccnc3)n2)cc1	8388	3	9	-74	6	8	1.3
O=C(Cn1cncn1)N/N=C/c1cccc(Cl)c1	3807	-2	x	-32	x	x	x
CCOc1cc(C(c2c(C)[nH][nH]c2=O)c2c(C)[nH][nH]c2=O)cc([N+](=O)[O-])c1O	3599	-8	-6	-21	1	0	-0.7
CCN(CC)S(=O)(=O)c1ccc(N2CCOCC2)c(NC(=O)COc2ccccc2)c1	4091	1	2	-53	-1	5	22
COC(=O)c1ccc2[nH]c3c(c2c1)CC(C)CC3 (stereo not drawn)	3682	-9	21	-5	12	10	-3.7
O=C(NN=C/C=C/c1ccco1)c1ccccc1Cl	x	x	-1	x	4	5	-1.5
CC(C)NC(=O)CC(=O)N/N=C\c1ccccc1C(=O)O	2681	1	x	-11	x	x	x
Cc1ccc(S(=O)(=O)N2CCC(C(=O)Nc3ccccc3N3CCCC3)CC2)cc1	u	7	-2	-10	7	4	-1.5
CCN(C(=O)c1cc2c(=O)[nH]c3ccc(C)cc3c2s1)c1ccc(OC)cc1	4005	-6	-4	2	1	-5	0.5
CC(=NNC(=S)NCc1ccccc1)c1ccc2c(c1)OCCO2	x	x	-2	x	4	-5	8.5
O=[N+]([O-])c1cc(C(F)(F)F)ccc1NCCCCNS(=O)(=O)c1ccc2ccccc2c1	11646	-4	-10	-16	12	7	8.5
Cn1c(N)c(-c2nc3cccnc3n2C)sc1=S	4652	7	2	-23	-3	-2	0.8
Cc1cccc(C)c1NC(=O)CN	4650	-8	7	-13	-13	2	3.9
O=C(COc1ccccc1)NCC(c1ccco1)N1CCCCC1 (stereo not drawn)	x	-6	12	7	9	-4	4.2
COC(=O)c1ccc(CN2C(=O)NC(Cc3c[nH]c4ccccc34)C2=O)cc1 (stereo not drawn)	6179	-1	-1	-24	-9	-9	0.8
Cc1cc(C)c(OCCNC(=O)c2ccccc2Sc2ccccc2C#N)c(C)c1	2236	4	-8	-14	8	6	29
CCCC(=O)Nc1c(-c2ccccc2)c(=O)c(C)nn1-c1ccc(C)cc1	3941	-4	1	-11	4	-3	2.0
COc1ccccc1NC(=O)c1cc[n+]([O-])cc1	4026	-1	0	-10	-7	-3	1.9
Cc1nonc1C(=O)NN=Cc1ccc(O)cc1	x	x	6	x	1	4	2.1
Cc1c(Cl)cccc1NC(=O)CCC(=O)NNC(=O)c1ccco1	16503*	10	-1	-20	-9	0	1.0
CCn1cc(S(=O)(=O)Nc2cc(F)ccc2C)cn1	4456	-2	6	-26	8	-2	5.9
Cc1ccc2c(c1C)NC(C(=O)O)C1CC=CC21 (stereo not drawn)	4176	6	-5	-19&0	10	2	10
CCN1CCSc2ccc(C(=O)NCc3ccccc3F)cc21	4761	-9	9	-16	6	1	5.2
O=C(Nc1cc(C(F)(F)F)ccc1N1CCOCC1)C1CCCO1 (stereo not drawn)	4011	x	-4	2	1	7	-4.3
O=C(CN1C(=O)C2C3C=CC(C3)C2C1=O)N1CCc2ccccc2C1 (stereo not drawn)	4208	5	0	-28	x	x	-1.5
Cc1cc(C(=O)NNc2ccc(C(C)C)cc2)n(C(C)(C)C)n1	4301	-3	29	7	6	2	-0.6
CCOc1ccc(CC(=O)Nc2cccc(-c3ccc4nnc(C)n4n3)c2)cc1	4147	-15	24	-10	1	3	4.1
CC(=O)Nc1ccc(NC(=O)CSc2nncn2C)cc1	3534	-4	2	-14	-5	1	1.3
Cc1occc1-c1nnc(SCC(=O)NC2CC2)n1C	4287	-7	2	5	5	-17	3.7
CCOC(=O)C1(c2ccccc2)Oc2ccccc2C(c2ccc(OC)cc2)=C1C(=O)OC (stereo not drawn)	2917	x	8	1	4	2	7.2
CC1CCCC(NC(=O)COC(=O)c2n[nH]c3ccccc23)C1C (stereo not drawn)	2854	x	7	-2	9	4	4.6
Cc1ccc(C(=O)Nc2ccc(N3CCN(C(=O)c4ccco4)CC3)cc2)c(Cl)c1	2906	3	6	-19	7	11	-1.9
O=C(COc1ccc(Cl)cc1Cl)OCn1nnc2ccccc2c1=O	3168	22	2	-8	x	x	2.8
O=C1CSC(c2ccccc2)N1CC(O)c1ccc([N+](=O)[O-])cc1 (stereo not drawn)	3351	4	0	-16	10	3	-1.1
c1ccc(-c2nc(N3CCCC3)nc3ccccc23)cc1	4731	10	17	-14	1	6	10
O=C1CCN(CCc2ccccc2)CCN1C(COc1ccccc1)c1ccccc1 (stereo not drawn)	x	x	1	x	-7	-11	1.5
CCOC(=O)c1c(C)[nH]c(C=O)c1Cc1cccc(Cl)c1	1899	2	-12	-9	0	0	-2.0
CC(C)(C)NC(=O)C1CCC(CNS(=O)(=O)c2cccc3nsnc23)CC1 (stereo not drawn)	5692	1	1	-12	0	7	-0.3
O=C(NCCCO)NC(=S)c1cccc2ccccc12	4559	x	1	-4	1	-5	2.0
COc1ccccc1C1/C(=C(\O)c2ccc3c(c2)OCCO3)C(=O)C(=O)N1CCCn1ccnc1 (stereo not drawn)	5835	-5	3	0	5	6	0.7
CCCc1nc2ccc(NC(=O)c3cccs3)cc2c(=O)n1Cc1ccc(Cl)cc1	2565	-5	-12	-14	-4	-3	-4.7
COc1cc(/C=N/N2C(C)CCCC2C)cc(OC)c1O (stereo not drawn)	3448	14	x	-14	x	x	x
CN1CCN(S(=O)(=O)c2cccc(C(=O)NCCOc3ccccc3)c2)CC1	5913	-2	7	-13	-9	-7	0.6
CCCCS(=O)(=O)CC(COc1ccccc1)OC(=O)c1ccccc1 (stereo not drawn)	5132	1	3	-1	x	x	7.1
CCOc1ccc(S(=O)(=O)N(C)CC(=O)NCc2ccccn2)cc1	3664	-9	4	-27	8	9	0.7

Single records (already shown):
c1ccc(-c2nc(N3CCCC3)nc3ccccc23)cc1 is listed as Bead autofluor = 4731; BJeLR lethal = 10; ugtP null kill = 17; PrP UTR inh = -14; Mtb hypoxia rep = 1; Mtb hypoxia rep growth = 6; RN4220 kill = 10
CC(C)(C)NC(=O)C1CCC(CNS(=O)(=O)c2cccc3nsnc23)CC1 (stereo not drawn) is listed as Bead autofluor = 5692; BJeLR lethal = 1; ugtP null kill = 1; PrP UTR inh = -12; Mtb hypoxia rep = 0; Mtb hypoxia rep growth = 7; RN4220 kill = -0.3
CCOC(=O)c1c(C)[nH]c(C=O)c1Cc1cccc(Cl)c1 is listed as Bead autofluor = 1899; BJeLR lethal = 2; ugtP null kill = -12; PrP UTR inh = -9; Mtb hypoxia rep = 0; Mtb hypoxia rep growth = 0; RN4220 kill = -2.0

Following part.
SMILES	Bead autofluor	BJeLR lethal	ugtP null kill	PrP UTR inh	Mtb hypoxia rep	Mtb hypoxia rep growth	RN4220 kill
CCC1CCCCN1CCNC(=O)c1[nH]c(C)c(C(C)=O)c1C (stereo not drawn)	5387	6	-1	-13	4	14	-0.1
COc1ccc2cc(C(=O)NCC3CCCO3)[nH]c2c1 (stereo not drawn)	3632	1	-1	-56	12	3	1.9
Cn1c(=O)c2c(ncn2CC(=O)OCC(=O)Nc2cc(Cl)ccc2C#N)n(C)c1=O	2817	x	2	-12	12	2	0.1
COc1cccc(CC(NC(C)=O)C(=O)NC2CCN(S(=O)(=O)c3ccc(C)cc3)CC2)c1OC (stereo not drawn)	4785	-11	1	-20	-4	-9	0.8
O=C1CC[C@@H](CN(Cc2ccccn2)Cc2nc(Cc3cccc(C(F)(F)F)c3)no2)N1	2457	-3	x	-46	x	x	x
O=C(Nc1ccc(N2CCN(C(=O)c3ccco3)CC2)cc1)c1ccc(Br)cc1	4802	6	4	-20	-4	0	3.7
Fc1cccc(CCN2C(=S)NC[C@@H]2CC2CCCCC2)c1	2797	1	x	-3	x	x	x
O=C1SC(SCc2ccccc2)=N/C1=C\c1ccc(C(=O)O)cc1	3306	4	-11	-17	15	33	-0.8
O=C(O)Cn1c(O)c(C=Nc2ccccc2)sc1=S	3916&9602	5&-4	5&3	-5&-19	6&10	12&3	6.4&5.8
CC1Sc2ccc(C(=O)OCc3ccccc3Cl)cc2NC1=O (stereo not drawn)	5938	2	-4	-111	1	7	1.1
CCOc1ccc(C(=O)NCC(=O)N2CCN(c3ccccc3O)CC2)cc1	5981	-5	-13	-3	8	3	6.3
